Compound activity from PubChem.
HNF4A DNA FP: change in binding of human HNF4 alpha to DNA | P41235 | HNF4a-FITC DNA binding, fluorescence polarization, 1 h | activity change, % at 10 µM | 0.3% of 360,000 active; in the data active = activity change above about 30%, passing the limit was not always enough;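 note: controls were the assay level and a saturating level of protein; the project sought stronger binding though the title names inhibitors; some compounds called inactive have numbers as strong as hits; positive values seem to mean higher polarization but the record does not say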
A1 inh: inhibitors of the anti-apoptotic protein A1, read as caspase activation; MEF A1-2A-BIM cells, Caspase-Glo 3/7 luminescence, 3 h; percent of clofoctol response, vehicle zero; caspase activation, % (test concentration not listed); 0.066% of 330,000 active; AID 2462;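 active = over half of replicate activation scores above 10%, or exactly half above 10 with the replicate mean above 10; inconclusive = replicate mean below 10 yet half the replicates above 10; inactive = over half of replicates below 10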;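 note: wells of about 30 µL received 50 nL stock; many hits fall short of the cut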
UCH37 inh: blocks the human deubiquitinase UCH37. Q9Y5K5. purified proteasome/UCH37, Ub-AMC cleavage fluorescence. inhibition, % (no concentration beside the values). 0.33% of 330,000 active;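 active = mean of two replicates above 20%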;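 note: 0% = compound-free wells with enzyme and 100% = wells lacking proteasome; stock transfer was 100 nL into about 20 µL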
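Material: Human UCH37 enzyme supplied as purified proteasome complex | Schedule: 30 min preincubation with enzyme, 25 min cleavage at room temperature | Detection: AMC fluorescence 355/460 nm | Measure: % inhibition of Ub-AMC cleavage fluorescence | Controls: Wells without proteasome as full block, compound-free enzyme plus substrate as uninhibited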
Ecoli growth: inhibitors of Escherichia coli growth | OD600, 23 h; active compounds read low | OD600 absorbance (concentration not given with the values) | AID 1053175 | 0.21% of 330,000 active;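 active = OD600 absorbance below the run mean of sample wells minus 3.6 SD, in any replicate, cut at about 0.56 in these data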;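 note: stock transfer was 300 nL into about 60 µL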
Beta2AR agonist: activates human beta-2 adrenergic receptor causing internalization; response, % (test concentration not listed); 0.43% of 340,000 active; Am2.2-beta2AR cells, FAP receptor internalization, flow cytometry; reference of the scale not given here;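 active = response above a set limit, near 3 SD of response in nonfluorescent compounds, cut at about 42% in these data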;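 note: stock transfer was 100 nL into about 11 µL; a reference agonist was the positive control; negative values mostly stem from fluorescent compounds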
Vif A3G: inhibitors of Vif binding to APOBEC3G peptide, primary screen, biochemical, TR-FRET, GST-Vif 1-94, biotin-A3G peptide, dose response retest (AID 1117319) | 0.57% of 260,000 active | inhibition, %, or IC50 in µM where a hit was titrated | TR-FRET GST-Vif / biotin-A3G peptide binding; higher % means a stronger effect; test concentration not given here; strong numbers were not always called active;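 active = above the screen mean plus three standard deviations and confirmed in dose response; inconclusive = results disagree or hit not tested in dose response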;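 note: Vif residues 1-94 fused to GST binding biotinylated APOBEC3G peptide 110-148; 0% = full assay without inhibitor and 100% = GST in place of GST-Vif; retest series ran down from 100 µM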
LANA-H2B inh: blocks KSHV LANA binding to histone H2A/H2B | cell-free LANA-H2A/H2B peptide, fluorescence polarization | inhibition, % (test concentration not listed) | 0.6% of 320,000 active; in the data active = inhibition mostly above about 10%, no sharp cut-off; inactive = mostly below about 6.7%;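 note: stock transfer was 7.5 nL into about 10 µL; 0% = median of vehicle wells and 100% = median of positive control wells; one replicate is shown; the record names a cut of 25% in any replicate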
Target sequence (Q9QR71 whole entry, looked up): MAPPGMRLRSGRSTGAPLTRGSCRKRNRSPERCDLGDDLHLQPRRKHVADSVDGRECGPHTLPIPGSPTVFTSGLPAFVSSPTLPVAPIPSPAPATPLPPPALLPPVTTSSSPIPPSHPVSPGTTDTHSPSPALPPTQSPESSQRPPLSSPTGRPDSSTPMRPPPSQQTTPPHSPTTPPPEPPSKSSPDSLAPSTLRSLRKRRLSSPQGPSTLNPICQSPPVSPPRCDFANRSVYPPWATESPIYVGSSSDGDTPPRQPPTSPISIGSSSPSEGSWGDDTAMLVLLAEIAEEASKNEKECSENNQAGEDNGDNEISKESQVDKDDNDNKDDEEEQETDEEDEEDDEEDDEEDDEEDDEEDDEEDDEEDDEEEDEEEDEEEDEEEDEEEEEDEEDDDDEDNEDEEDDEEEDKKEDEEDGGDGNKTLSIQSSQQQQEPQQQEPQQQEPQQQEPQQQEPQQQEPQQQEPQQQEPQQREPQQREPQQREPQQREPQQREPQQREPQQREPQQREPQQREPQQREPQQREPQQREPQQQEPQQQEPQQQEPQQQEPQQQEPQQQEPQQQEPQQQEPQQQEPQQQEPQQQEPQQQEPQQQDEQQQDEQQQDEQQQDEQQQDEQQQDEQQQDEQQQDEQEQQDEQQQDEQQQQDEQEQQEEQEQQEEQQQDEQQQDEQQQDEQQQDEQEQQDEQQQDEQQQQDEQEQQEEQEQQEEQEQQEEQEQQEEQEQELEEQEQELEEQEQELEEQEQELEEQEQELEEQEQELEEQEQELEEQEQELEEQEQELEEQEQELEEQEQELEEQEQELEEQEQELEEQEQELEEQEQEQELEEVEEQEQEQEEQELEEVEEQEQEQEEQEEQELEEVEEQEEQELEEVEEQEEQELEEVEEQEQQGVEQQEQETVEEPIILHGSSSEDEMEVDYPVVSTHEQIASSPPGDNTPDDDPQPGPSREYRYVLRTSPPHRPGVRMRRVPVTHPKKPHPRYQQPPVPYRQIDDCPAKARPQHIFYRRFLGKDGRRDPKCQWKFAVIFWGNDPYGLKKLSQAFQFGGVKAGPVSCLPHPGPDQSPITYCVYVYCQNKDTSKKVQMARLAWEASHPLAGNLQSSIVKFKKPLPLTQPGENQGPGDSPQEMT
* hit, by the source's call; ? = inconclusive; nt = no result given; + = active, no number; & = joins results of further samples.

#1 CCn1cc(C2=NOC(C(=O)Nc3cc(C)nn3-c3ccccc3)C2)c(C)n1 (stereo unspecified)
#2 O=c1sc2ccccc2n1COc1ccc(Cl)cc1
#3 Cc1ccc2cccc(OCC(=O)Nc3ccc(N4CCOCC4)cc3)c2n1
#4 CC(=O)c1cc(F)c(N2CCN(C(=O)C(C)(C)C)CC2)cc1C
#5 Cc1c(C)n(-c2ccc(Cl)cc2)c2ncnc(N)c12
#6 COc1ccc(C2c3[nH]c4ccccc4c3C[C@H]3C(=O)N(CCCO)CC(=O)N23)c(OC)c1 (stereo partly specified)
#7 CSc1ccccc1OCc1cc(C(=O)N(C)Cc2ccncn2)no1
#8 CN(C)c1nnnn1-c1ccccc1Oc1ncc(C(F)(F)F)cc1Cl

Assay by compound	1	2	3	4	5	6	7	8
UCH37 inh	7.4	2.2	5.7	2.4	-2.1	2.4	3.3	-0.4
Ecoli growth	0.73	0.66	0.68	0.72	0.67	0.66	0.73	0.7
Beta2AR agonist	-9	11	19	-6	1	0	7	-3
A1 inh	0.0	1.2	0.1	0.5	0.8	-0.8	0.1	-0.5
LANA-H2B inh	7.5	3.7	9.9	-0.6	-3.5	7.0	-6.3	-7.7
Vif A3G	-3%&-5%	-4%	17%	-3%	nt	0%	nt	6%
HNF4A DNA FP	-0.1	-2.7	5.3	-1.3	2.2	-0.8	-0.4	-0.3

#9 CCOC(=O)N1CCN(C(=O)CSCc2nc(-c3ccccc3C)oc2C)CC1
#10 COC(=O)[C@H](CCSC)NC(=O)Nc1cc(C)ccc1C
#11 CCO[C@H]1OC(C(=O)O)=C[C@@H](c2coc3ccccc3c2=O)[C@@H]1CCCO
#12 COC(=O)c1cc(CNC(=O)c2cccc(Cl)c2Cl)ccc1OC
#13 Cn1c(=O)c2c(nc(CN3CCN(C(c4ccccc4)c4ccccc4)CC3)n2CC(N)=O)n(C)c1=O
#14 COC(=O)Cc1c(O)ccn(C2CC2)c1=O
#15 CCCCNC(=O)CSc1nc(COc2ccccc2)nc2ccccc12
#16 COc1ccc(NC(=O)CSc2nnc(C3CCCCC3)o2)c(OC)c1

Assay by compound	9	10	11	12	13	14	15	16
UCH37 inh	1.5	4.0	1.2	4.6	-4.2	0.0	3.2	5.6
Ecoli growth	0.67	nt	nt	0.68	0.68	0.67	0.66	0.72
Beta2AR agonist	-10	0	-5	nt	4	-12	1	-18
A1 inh	0.6	0.3	1.8	-0.5	0.1	0.9	-0.2	-1.1
LANA-H2B inh	0.0	2.7	1.4	4.0	1.5	2.1	4.8	-3.2
Vif A3G	-2%	0%	nt	33%	6%	nt	-1%	6%
HNF4A DNA FP	-2.6	-0.8	-1.5	nt	3.8	-1.9	2.2	-3.8

#17 COc1ccccc1-n1cc(-c2ccccc2)[nH]c1=S
#18 O=c1[nH]c(/C(=N\O)c2ccccc2)no1
#19 CONc1nc2nonc2nc1NOC
#20 CCN(CC)S(=O)(=O)c1cccc(-c2nnc(SC(C)C#N)n2Cc2ccccc2)c1 (stereo unspecified)
#21 COc1ccc(NC(=O)C2CCCN(S(C)(=O)=O)C2)cc1OC (stereo unspecified)
#22 CCC1CCCCN1C1Sc2ccc(C(=O)OC)cc2NC1=O (stereo unspecified)
#23 CSc1oc(-c2ccco2)nc1S(=O)(=O)c1ccc(F)cc1
#24 COC(=O)C(Nc1nccs1)(OC)C(F)(F)F (stereo unspecified)

Assay by compound	17	18	19	20	21	22	23	24
UCH37 inh	3.7	nt	3.0	5.2	5.3	-0.9	2.3	4.9
Ecoli growth	0.68	nt	0.67	0.71	0.69	0.62	0.81	0.69
Beta2AR agonist	4	9	8	5	-8	0	-1	-2
A1 inh	-0.4	-0.6	0.8	-0.5	0.2	-0.3	0.0	0.0
LANA-H2B inh	-11	-1.5	5.3	0.5	-2.1	-5.2	-3.6	-0.3
Vif A3G	nt	0%	23%	0%&-5%	nt	1%	9%	18%
HNF4A DNA FP	-1.0	3.3	1.5	0.1	-2.6	10.0	0.6	-2.5

#25 CCOC(=O)[C@H]1[C@H]2COc3ccc(OC)cc3[C@@H]2N2C(=O)CN(CCc3c[nH]c4ccccc34)C(=O)[C@@]12C
#26 COc1ccc(-c2cc(C(=O)Nc3ccc(O)cc3)c3ccccc3n2)cc1OC
#27 CCOc1ccc(NC(=O)Nc2ccccc2C(N)=O)cc1
#28 CCOC(=O)C1CCCN(CCC(=O)Nc2cccc(Cl)c2C)C1 (stereo unspecified)
#29 Cc1nc2ccccc2c(=O)n1NCc1cc(Br)cs1
#30 CN(C)c1nc(C#N)nc(N2CCOCC2)n1
#31 O=C(c1cccs1)N1CCN(S(=O)(=O)c2ccccc2)CC1
#32 COc1ccc(S(=O)(=O)N(Cc2nc3ccccc3c(=O)[nH]2)C2CCCC2)cc1

Assay by compound	25	26	27	28	29	30	31	32
UCH37 inh	2.9	-1.4	-3.0	2.1	-4.4	-1.0	1.4	1.1
Ecoli growth	nt	0.72	0.65	0.65	0.66	0.77	0.71	0.71
Beta2AR agonist	-8	28	7	13	-12	4	5	-1
A1 inh	0.1	-0.4	-2.8	1.1	0.1	-0.6	-0.1	-0.6
LANA-H2B inh	-6.1	-1.6	-3.4	0.1	3.0	-1.2	1.5	-0.7
Vif A3G	nt	2%	-3%	nt	-13%	3%	-3%	?
HNF4A DNA FP	3.9	-3.0	3.2	2.2	-0.4	-1.6	2.7	0.4

#33 O=S(=O)(N/N=C/c1cccnc1)c1ccc(Cl)c(Cl)c1
#34 COc1ccc(-c2c(C)oc3c(CN4CCN(C)CC4)c(O)ccc3c2=O)cc1
#35 COCCn1c(SCC(=O)c2c(N)n(C3CC3)c(=O)[nH]c2=O)nnc1-c1ccc(Cl)cc1
#36 Cn1nc(C(F)(F)F)c2cc(C(=O)Nc3ccc(F)cc3F)sc21
#37 COc1ccc(C)cc1S(=O)(=O)n1nc(C)cc1C
#38 COc1ccc(OC2OC3COC(c4ccco4)OC3C(O)C2NC(C)=O)cc1 (stereo unspecified)
#39 CN1C(N)=NC(=O)/C1=C\c1ccc(Br)cc1
#40 Nc1cccc(C#Cc2ccc3c(c2)C(=O)/C(=C/c2ccsc2)O3)c1

Assay by compound	33	34	35	36	37	38	39	40
UCH37 inh	nt	-421	3.9	4.2	-1.2	4.1	5.1	2.0
Ecoli growth	nt	0.72	0.71	0.68	0.69	0.67	0.61	0.72
Beta2AR agonist	1	3	-8	-5	-2	9	-1	12
A1 inh	-0.1	0.4	1.0	-0.5	1.2	0.7	0.5	nt
LANA-H2B inh	2.6	2.2	+	0.9	3.4	-1.2	0.0	nt
Vif A3G	-3%	2%	-15%	3%	23%	nt	0%	7%
HNF4A DNA FP	0.8	1.0	0.9	0.5	2.5	-3.4	0.7	6.1

#41 O=C(NC(=S)N1CCCC(O)C1)c1ccco1 (stereo unspecified)
#42 Cc1ccc(S(=O)(=O)CCC(=O)OCC(=O)NCCc2ccccc2)cc1
#43 COCCCNC(=O)c1cccs1
#44 C=CCC[C@@H](Cc1ccc(F)cc1)C(=O)OC[C@H](Cc1c[nH]c2ccccc12)NC(=O)[C@H](CC=C)CC(=O)NCCO
#45 O=C(NCc1ccco1)Nc1cccc2ccccc12
#46 O=C(Nc1cccnc1)c1ccccc1Cl
#47 COc1ccc(NC(=O)NN2CCOCC2)cc1OC
#48 COc1ccccc1N(CC(=O)Nc1ccccc1C(=O)N1CCOCC1)S(C)(=O)=O

Assay by compound	41	42	43	44	45	46	47	48
UCH37 inh	nt	2.1	3.3	4.9	-1.0	3.0	2.2	0.5
Ecoli growth	nt	0.71	0.72	nt	0.73	0.63	0.64	0.72
Beta2AR agonist	-2	2	-5	5	-9	-4	2	6
A1 inh	0.3	0.2	-0.4	1.2	nt	-0.5	0.5	0.1
LANA-H2B inh	-1.3	nt	-4.9	-1.1	nt	-3.7	0.3	-2.6
Vif A3G	nt	-3%	6%	nt	-6%	1%	6%	nt
HNF4A DNA FP	-4.1	15	-2.6	3.0	-2.1	3.5	2.9	0.9

An excerpt of these results, as tab-separated lines:
no.	SMILES	UCH37 inh	Ecoli growth	Beta2AR agonist	A1 inh	LANA-H2B inh	Vif A3G	HNF4A DNA FP
36	Cn1nc(C(F)(F)F)c2cc(C(=O)Nc3ccc(F)cc3F)sc21	4.2	0.68	-5	-0.5	0.9	3%	0.5
37	COc1ccc(C)cc1S(=O)(=O)n1nc(C)cc1C	-1.2	0.69	-2	1.2	3.4	23%	2.5
38	COc1ccc(OC2OC3COC(c4ccco4)OC3C(O)C2NC(C)=O)cc1 (stereo unspecified)	4.1	0.67	9	0.7	-1.2	nt	-3.4
39	CN1C(N)=NC(=O)/C1=C\c1ccc(Br)cc1	5.1	0.61	-1	0.5	0.0	0%	0.7
40	Nc1cccc(C#Cc2ccc3c(c2)C(=O)/C(=C/c2ccsc2)O3)c1	2.0	0.72	12	nt	nt	7%	6.1
41	O=C(NC(=S)N1CCCC(O)C1)c1ccco1 (stereo unspecified)	nt	nt	-2	0.3	-1.3	nt	-4.1
42	Cc1ccc(S(=O)(=O)CCC(=O)OCC(=O)NCCc2ccccc2)cc1	2.1	0.71	2	0.2	nt	-3%	15
43	COCCCNC(=O)c1cccs1	3.3	0.72	-5	-0.4	-4.9	6%	-2.6
44	C=CCC[C@@H](Cc1ccc(F)cc1)C(=O)OC[C@H](Cc1c[nH]c2ccccc12)NC(=O)[C@H](CC=C)CC(=O)NCCO	4.9	nt	5	1.2	-1.1	nt	3.0

Other results:
#49 O=C(CSc1ncn[nH]1)NCc1ccccc1Cl
#50 COc1ccccc1N1CCN(C(=O)c2ccc(Br)s2)CC1
#51 COc1ccc(-c2ccc([C@H]3[C@H]4C=CC[C@@H](C)[C@@H]4C(=O)N3Cc3ccccc3)c(F)c2)cc1C
#52 Cc1ccc(C(=O)COC(=O)CCC(=O)Nc2cc(Cl)ccc2Cl)cc1[N+](=O)[O-]
#53 CCN1C(=S)SC(=O)C1=C1C=C(C)OC(C)=C1
#54 COc1ccc(C/C(N)=N/OC(=O)COc2ccccc2C)cc1
#55 Cc1nnc2ccc(-c3ccc(NC(=O)c4ccc(Cl)nc4)cc3)nn12
#56 CCOc1ccc(/C=N/n2nnnc2N)cc1O

Assay by compound	49	50	51	52	53	54	55	56
UCH37 inh	0.8	3.5	0.1	1.8	6.7	3.0	-11	nt
Ecoli growth	0.7	0.7	nt	0.7	0.69	0.69	0.68	nt
Beta2AR agonist	8	-2	-6	7	1	10	nt	6
A1 inh	0.0	-0.6	0.1	-0.3	-2.2	0.1	-0.5	0.6
LANA-H2B inh	2.4	-0.3	1.8	0.4	-2.3	1.0	0.1	1.4
Vif A3G	-2%	2%	nt	6%	0%	-1%	-2%	nt
HNF4A DNA FP	-0.9	1.9	6.2	-4.8	-15	-1.4	nt	0.1

#57 O=C1CCCCCN1CSc1nc2ccccc2s1
#58 COc1cccc(NC(=O)Nc2ccc3c(c2)nc(C)n3C)c1
#59 O=C(Oc1ccccc1)c1ccccc1OS(=O)(=O)c1ccccc1
#60 O=P(OC1CCCCC1)(OC1CCCCC1)C(O)c1ccc(Cl)cc1Cl (stereo unspecified)

Assay by compound	57	58	59	60
UCH37 inh	2.3	4.5	3.5	1.5
Ecoli growth	0.7	0.65	0.68	0.69
Beta2AR agonist	-4	9	-1	1
A1 inh	0.6	-3.7	1.5	0.0
LANA-H2B inh	1.8	1.2	0.6	2.3
Vif A3G	6%	nt	-5%	24%
HNF4A DNA FP	0.4	1.1	-1.1	3.4

The order is random. About 2.1% of those tested had a hit in this group.
